Sa ugtP lethal: growth inhibition of S. aureus ugtP deletion strain; S. aureus RN4220 ugtP deletion, OD600 growth, 16 h; some inactives read as strong as hits; growth inhibition, % (test concentration not listed); actives 0.54% (n = 330,000); AID 1259309;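 active means z-score under -3 and OD600 up to 0.15 on both plates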;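 further: plate controls were untreated wells for no effect and antibiotic for full effect; wells of about 80 µL received 100 nL stock; the first replicate is given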
PrP 5UTR inh: inhibition of PrP 5' UTR reporter expression; cell-based PrP 5' UTR mRNA reporter, plate reader; inhibition, % (concentration not given with the values); actives 0.35% (n = 340,000);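 active means every replicate at 50% or more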;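 further: 0 = median of the neutral control wells; tested in H4 reporter cells; numbers are from one replicate; inactives centre near -14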
RN4220 kill: S. aureus RN4220 growth inhibition. OD600, 16 h. inhibition, % (concentration not given with the values). actives 0.33% (n = 330,000);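 active means z-score of -3 or lower and OD600 up to 0.18 on both plates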;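 further: plate controls were untreated cells for no effect and reference antibiotic for full effect; stock transfer was 100 nL into about 80 µL; one replicate is shown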
BJeLR viability: BJeLR cell viability loss. BJeLR (HRASV12) viability, CellTiter-Glo ATP luminescence, 48 h; reference of the scale not given here. inhibition, % (test concentration not listed). actives 0.17% (n = 300,000). AID 1554;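 active means replicate mean above 50%; inconclusive means above 50% but judged a plate artefact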;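 further: 50 nL library stock added to about 25 µL; numbers are from one replicate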
Bead autofluor: flagged as autofluorescent in microsphere protease counterscreen; compound autofluorescence counterscreen, microsphere flow cytometry; active compounds read high; actives 3.1% (n = 360,000); AID 624483; fluorescence intensity (test concentration not listed);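 active means at least 3 SD above the mean of all compounds, about 16000 in these data; inconclusive means too few beads counted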;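 further: 100 nL of 1 mM stock went into each well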
Mtb hypoxia inh: reduces hypoxia-regulated biosensor signal in M. tuberculosis; fluorescence inhibition, % (no concentration beside the values); actives 0.1% (n = 300,000); M. tuberculosis hypoxia-regulated fluorescent reporter, fluorescence;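 active means 35 to 45% if threefold the growth effect, above 45% if 1.5-fold the growth effect; inactive means the rest, general growth blockers included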;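 further: wells of about 50 µL received 100 nL stock; 0% = vehicle wells and 100% = reference inhibitor wells; whole bacteria with a GFP reporter of the hypoxia response; strong numbers were not always called active; many hits fall short of the cut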
Mtb hypoxia inh growth: further read-out of Mtb hypoxia inh, marked with its call; growth inhibition, %; measured here: M. tuberculosis growth (absorbance);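 0% = vehicle and 100% = reference antibiotic; read after six days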
* marks the source's active call; other numbers are inactive results; ? = inconclusive; . = not tested or not shown.

SMILES	Sa ugtP lethal	PrP 5UTR inh	RN4220 kill	BJeLR viability	Bead autofluor	Mtb hypoxia inh	Mtb hypoxia inh growth
NC(=O)C1Cc2ccccc2CN1C(=O)c1nn(Cc2ccccc2)c(=O)c2ccccc12 (stereo not drawn)	6	-2	4.4	.	?	4	1
CCC(Oc1ccccc1F)C(=O)NCCCn1ccnc1 (stereo not drawn)	5	4	0.8	-6	3511	2	-17
Cc1cc(C)n(-c2nnc(NC34CC5CC(CC(C5)C3)C4)nn2)n1	.	-62	.	-20	2849	.	.
COc1ccc(C(=O)N2CCCC2)cc1S(=O)(=O)N1CCC(C)CC1	-2	-20	-5.1	6	2582	9	9
Cc1oc(CC(C)C)cc1C(=O)Nc1ccc(C(=O)O)cc1	0	-65	-1.4	-5	9752	3	2
O=C(CCc1ccccc1)NCC(=O)N/N=C/c1ccc(O)cc1O	.	-16	.	2	4226	.	.
Cc1cc(=O)[nH]c(NN=Cc2cc(C)n(-c3ccccc3)c2C)n1	0	.	2.5	.	.	-17	-11
O=C(CSc1nncc2ccccc12)Nc1cccc(O)c1	-4	-18	-3.8	-12	3668	2	2
O=C(Nc1cccc(NC(=O)c2ccc(F)cc2)c1)c1ccc(F)cc1	4	-4	12	-1	3624	2	2
CCC(=O)NC(c1ccccc1)c1c(O)ccc2ccccc12 (stereo not drawn)	13	-8	-1.1	11	3819	7	-5
COc1cc(CNC(C)c2ccccc2)cc(Cl)c1OCC(=O)Nc1ccccc1 (stereo not drawn)	4	-4	8.2	9	3268	8	24
CC(C)CCN(CC(=O)NCc1ccc(F)cc1)S(=O)(=O)c1ccccc1F	-4	-18	-2.9	-7	3226	-8	13
CCCCOc1c(Br)cc(C=NO)cc1OCC	100*	.	0.4	.	.	2	3
O=C1CCCN1CCNC(=S)Nc1ccccc1	0	-14	-2.0	5	7502	2	4
CCOc1cccc(C=NNC(=S)Nc2ccccc2[N+](=O)[O-])c1O	-28	.	-4.8	.	.	-3	6
C=CCc1cccc(C=NNC(=O)c2ccccc2OC)c1O	-10	.	7.6	.	.	-9	11
Cc1ccc(S(=O)(=O)NN=Cc2cc([N+](=O)[O-])ccc2O)cc1[N+](=O)[O-]	35	.	64	.	.	6	2
Cc1oc(CSCCSCc2cc(C(=O)O)c(C)o2)cc1C(=O)O	-2	-32	1.8	-20	3514	11	1
CC(C)Cn1c(N2CCN(C(=O)c3cccs3)CC2)nc2ccccc21	1	-29	3.6	-9	9947	11	8
Cc1cc(N2CCOCC2)ccc1/C=C1\NC(=O)N(CC(=O)Nc2ccccc2C)C1=O	10	-29	4.4	-1	3512	3	6
COC(=O)Cn1cc(C(=O)c2ccco2)c2ccccc21	3	-23	4.3	3	3869	12	10
CCOC(=O)N1CCN(c2ccncc2S(=O)(=O)N2CCCCC2)CC1	.	-14	.	4	5955	.	.
CCn1c(SCc2ccc(C#N)cc2)nnc1-c1ccc(S(=O)(=O)N2CCCCC2)cc1	0	-14	3.1	6	4511	6	12
CCNC(=O)C1CN(S(=O)(=O)c2ccccc2)CCN1S(=O)(=O)c1ccccc1 (stereo not drawn)	8	-29	7.5	22	9897	3	6
O=c1[nH]c(SCCOc2cccc3ccccc23)nc2ccccc12	-3	-7	1.8	-1	4782	7	17
O=S1(=O)C[C@@H]2N=C(NN=Cc3ccccc3)S[C@@H]2C1	-1	.	0.2	.	.	-10	-2
COc1ccccc1NCCC(=O)OCC(=O)NC1CCCCCC1	1	-49	5.3	-12	2226	-19	8
COc1ccc(C2=NN(C(=O)c3ccco3)C(c3cc4ccccc4nc3Cl)C2)cc1 (stereo not drawn)	10	.	3.8	-3	.	11	2
COc1cccc(-n2c(CN3CCOCC3)nc3ccc([N+](=O)[O-])cc3c2=O)c1	8	-19	0.3	19	3729	-2	0
Cc1ccc(C)c(CNc2ccc(S(=O)(=O)N3CCCCC3)cc2)c1	-20	2	-7.8	.	6219	0	3
CSc1nc2sc3c(c2c(=O)n1C)CCCC3	11	-25	8.2	2	10342	13	13
O=C(Nc1ccccc1N1CCOCC1)c1ccncc1	-3	-12	2.6	.	3385	-4	4
O=C(Nc1ccc(Cl)cc1F)c1ccc(COc2c(F)c(F)c(F)c(F)c2F)o1	-2	-18	7.4	-1	.	9	6
CSCCC(NC(=O)COc1ccccc1)C(=O)N1CCN(c2cccc(C(F)(F)F)c2)CC1 (stereo not drawn)	-8	-6	0.2	.	?	-11	4
CCOc1ccc(C(=O)NCCC(=O)N2CCC3(CC2)NCCc2[nH]cnc23)cc1	4	-10	2.8	-3	6221	1	3
Cn1c(-c2ccccc2)c(C=NNC(=O)c2ccc(O)cc2)c2ccccc21	-5	.	-0.7	.	.	7	5
Cc1ccc2nc(N(CCCN(C)C)C(=O)c3cc(-c4cccs4)nc4ccccc34)sc2c1	-45	7	33	-4	6510	24	18
COc1ccc(N2CC(NC(=O)Nc3ccccc3)CC2=O)cc1 (stereo not drawn)	6	-16	4.3	7	5338	6	8
O=C(COc1ccccc1Cl)N1CCN(c2ncccn2)CC1	-3	-16	-0.1	6	22968*	-3	4
CN(C)S(=O)(=O)c1ccc(C(=O)Nc2ccccc2C(=O)NCCCN2CCOCC2)cc1	10	11	8.4	.	.	9	5
CCCn1c(N)c(C(=O)CN(C)CC(=O)Nc2ccc(C)cc2)c(=O)[nH]c1=O	5	-5	3.5	.	.	3	4
CN1C(=O)S/C(=C/c2cccnc2)C1=O	-4	-3	-0.1	-6	21884*	-3	6
NS(=O)(=O)c1ccc(NC(=O)COC(=O)CNC(=O)C23CC4CC(CC(C4)C2)C3)cc1	5	5	3.4	-2	4197	14	0
CC(=O)c1c(C)nc(C)nc1NC(=O)Cc1ccccc1	4	-4	0.2	-6	4962	.	.
O=C(NC(=S)Nc1nc2ccc(F)cc2s1)c1ccco1	1	-28	2.0	10	4364	8	18

Filtered by structure: the compounds so far containing an NH in an aromatic ring.
SMILES	Sa ugtP lethal	PrP 5UTR inh	RN4220 kill	BJeLR viability	Bead autofluor	Mtb hypoxia inh	Mtb hypoxia inh growth
Cc1cc(=O)[nH]c(NN=Cc2cc(C)n(-c3ccccc3)c2C)n1	0	.	2.5	.	.	-17	-11
O=c1[nH]c(SCCOc2cccc3ccccc23)nc2ccccc12	-3	-7	1.8	-1	4782	7	17
CCOc1ccc(C(=O)NCCC(=O)N2CCC3(CC2)NCCc2[nH]cnc23)cc1	4	-10	2.8	-3	6221	1	3
CCCn1c(N)c(C(=O)CN(C)CC(=O)Nc2ccc(C)cc2)c(=O)[nH]c1=O	5	-5	3.5	.	.	3	4

Next section:
SMILES	Sa ugtP lethal	PrP 5UTR inh	RN4220 kill	BJeLR viability	Bead autofluor	Mtb hypoxia inh	Mtb hypoxia inh growth
Cc1cnc(C)c(N2CCN(Cc3nc(-c4ccc(C)o4)oc3C)CC2)n1	-1	11	0.4	-8	4326	-9	-4
O=C1c2oc3ccc(Cl)cc3c(=O)c2C(c2ccccn2)N1CCCN1CCOCC1 (stereo not drawn)	-9	.	-7.1	-2	.	8	0
COc1cc(/C=C2\SC(=S)N(Nc3ccccc3)C2=O)ccc1O	-23	-42	11	7	2831	6	-9
CCc1cccc(CC)c1NC(=O)CSc1nnc(C2CC2)n1N	-2	1	1.0	.	5924	-9	3
Cc1ccc(S(=O)(=O)Nc2ccc(S(=O)(=O)Nc3ncccn3)cc2)cc1	13	-18	27	-5	2510	3	-2
Cc1ccc(-c2cc(NC(=O)CSc3n[nH]c(N)n3)n(-c3ccccc3)n2)cc1	13	-16	-8.7	-4	4856	.	.
CS(=O)(=O)c1ccc(C(=O)Nc2cc(-c3ccccc3)nn2-c2ccccc2)cc1	-14	-3	4.5	.	3151	10	14
Cc1cc(C)n2ncc(C(=O)NCCc3ccccc3)c2n1	-4	-7	-4.7	3	4717	1	3
Cc1cc(C)nc(Nc2cccc(Cl)c2)n1	-2	-12	4.9	-9	3849	1	-6
CC1CN=C(Nc2ccccc2)N1CC1CCC1 (stereo not drawn)	-20	.	-0.2	.	.	-2	3
COc1cc(C2NC(=O)NC(c3ccccc3)=C2C(C)=O)c(Cl)cc1OCC(=O)O (stereo not drawn)	6	-20	3.4	4	2236	10	8
Fc1ccccc1/C=C1\CCCC2=C1NC(=S)NC2c1ccccc1F (stereo not drawn)	14	-18	-16	13	4657	2	3
CCC(CC)C(=O)Nc1nnc(S(=O)(=O)N(CC)c2ccc(OC)cc2)s1	7	-2	0.6	2	4073	7	13
O=C(N1CCOCC1)N1CCN(C(=O)N(c2ccccc2)c2ccccc2)CC1	1	-16	2.3	1	10475	0	-4
O=C(NCCCn1ccnc1)c1ccc(Cl)s1	-3	-14	1.0	-7	5458	1	-6

Reprinted at random: four entries already listed, in no set order.
SMILES	Sa ugtP lethal	PrP 5UTR inh	RN4220 kill	BJeLR viability	Bead autofluor	Mtb hypoxia inh	Mtb hypoxia inh growth
COc1ccc(C2=NN(C(=O)c3ccco3)C(c3cc4ccccc4nc3Cl)C2)cc1 (stereo not drawn)	10	.	3.8	-3	.	11	2
Cc1cc(N2CCOCC2)ccc1/C=C1\NC(=O)N(CC(=O)Nc2ccccc2C)C1=O	10	-29	4.4	-1	3512	3	6
Cc1ccc2nc(N(CCCN(C)C)C(=O)c3cc(-c4cccs4)nc4ccccc34)sc2c1	-45	7	33	-4	6510	24	18
CCC(Oc1ccccc1F)C(=O)NCCCn1ccnc1 (stereo not drawn)	5	4	0.8	-6	3511	2	-17

The results go on.
SMILES	Sa ugtP lethal	PrP 5UTR inh	RN4220 kill	BJeLR viability	Bead autofluor	Mtb hypoxia inh	Mtb hypoxia inh growth
Fc1cccc(/C=N/Nc2ccccn2)c1	.	-94	.	4	3316	.	.
O=C(Nc1ccccc1-c1nc2ccccc2[nH]1)c1ccc(S(=O)(=O)N2CCCCC2)cc1	-22	-26	1.2	-5	15899	1	4
Cc1cccc(NS(=O)(=O)c2csc(C(N)=O)c2)c1C	7	-9	4.9	-3	3014	-2	-7
COc1ccc(C(=O)N/C(=C\c2cccs2)C(=O)N2CCN(C)CC2)cc1OC	-2	-4	-0.4	-3	2799	7	2
CCOC(=O)C1=C(C)C2C3C(=O)N(c4ccc(C)cc4C)C(=O)C3C1(C)C1C(=O)N(c3ccc(C)cc3C)C(=O)C21 (stereo not drawn)	10	-11	6.0	1	2122	-2	3
CCCn1c(N)c(C(=O)CSc2nc3ccccc3c(=O)n2Cc2ccccc2)c(=O)[nH]c1=O	5	-12	-2.2	0	4223	-2	13
CCOc1ncccc1C(=O)OCc1c(Cl)cccc1Cl	23	2	3.6	-5	1962	3	1
CC(C)(C)n1nnnc1C(c1cccc(C#N)c1)N1CCN2CCCC2C1 (stereo not drawn)	3	-29	1.0	-1	7456	13	0
O=C(Cc1cccs1)NCc1cccc(F)c1	15	-26	-0.9	-4	2498	5	16
O=c1[nH][nH]cc1C=NCc1cccnc1	2	-12	4.5	4	2271	11	10
CC1C(=O)CC(c2ccccc2)NC1c1ccccc1 (stereo not drawn)	0	-42	-0.7	-8	9375	5	7
CCC(=O)Nc1cccc(-c2nc3ncccc3o2)c1C	6	-1	3.6	16	3440	21	12
CCCc1[nH]nc2c1C1(CCOC1C)C(C#N)=C(N)O2 (stereo not drawn)	6	-34	2.1	0	4179	4	8
NC(=O)c1ccc(N2CCN(c3ccc(O)cc3)CC2)c([N+](=O)[O-])c1	.	4	.	7	1983	.	.
NC(=O)COC(=O)c1ccc(Cl)c(S(=O)(=O)N(Cc2ccccc2)c2ccc(Cl)cc2)c1	29	-33	1.6	-7	2682	0	2
O=C(Cc1nnc(NC(=O)Nc2ccccc2)s1)NCc1ccccc1	.	9	.	-3	2476	.	.
CN(c1ccccc1)c1ccc(/C=C(/CCC(=O)O)c2nc3ccccc3s2)cc1[N+](=O)[O-]	-7	-2	9.8	.	3777	7	3
Brc1ccc(C2Nc3cccc4cccc(c34)N2)o1	-19	-7	3.3	-3	4419	7	0
Cc1nn(CC(=O)Nc2ccc3c(c2)CCC3)c(C)c1[N+](=O)[O-]	-2	-23	-0.3	.	3923	-6	14
S=C(Nc1ccccc1Cl)N(Cc1ccccc1)Cc1ccccn1	8	2	5.8	-7	4348	3	10
O=C(CC1C(=O)NCCN1C(=O)c1ccc(Cl)cc1)Nc1ccc(F)cc1 (stereo not drawn)	1	-1	3.5	8	4240	-4	-8
CC(C)CCNC(=O)COc1ccc2c(c1)C(=O)CC(C)(C)O2	2	-19	-4.1	-6	3314	-86	34
COc1ccc(CNC(=O)CCS(=O)(=O)c2cccc3nonc23)cc1	2	5	6.5	.	6614	16	11
COc1ccc(N(CC(=O)NCc2ccco2)C(=O)CNS(=O)(=O)c2ccc(Cl)cc2)cc1	-3	-11	-0.2	-3	6387	-4	10
COc1ccccc1C(=O)NC(=S)NNC(=O)c1sc2ccccc2c1Cl	98*	-2	100*	10	2129	-10	-5
